HCMV NEC inh – inhibitors of HCMV UL50-UL53 interaction, biochemical, HTRF. 190,000 compounds, 0.15% hits. inhibition, % (concentration not given with the values). HCMV UL50-UL53 nuclear egress complex (human cytomegalovirus). normalized percent inhibition;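 active = both replicates at 50% or more, plus weaker picks with an unusually low signal ratio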;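 note: stock transfer was 100 nL into about 20 µL; 0% = negative control wells and 100% = wells with untagged competitor protein; inactives centre near -12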
Numbers without * were called inactive; & = joins results of further samples. The list is partial; rates above refer to the full screens.

SMILES	HCMV NEC inh
COC(=O)CN1CCN(C(=O)Nc2n[nH]c(-c3ccco3)n2)CC1=O	22&22
COc1ccc(-c2nc3ccccc3c(=O)o2)cc1OC	-3
Cc1sc2ncnc(Sc3ccccc3)c2c1C	-10
COC(=O)Cc1c(-c2ccccc2)c2cc(C)ccc2[nH]c1=O	-2
N#Cc1c(NC(=O)CN2C(=O)CCC2=O)sc2c1CCCC2	-19
O=C(CSc1nc2c(c(=O)n1-c1ccccc1)SCC2)NCC1CCCO1 (stereo not drawn)	-22
CCOC(=O)C1C(=O)C=C(c2ccco2)CC1c1ccccc1 (stereo not drawn)	-16
Cc1ccc(C2CC(=O)Nc3sc(C(N)=O)c(N)c32)cc1 (stereo not drawn)	-11
O=C1C=CC(=O)c2c1ccc1c2ccc2ccccc21	-18
COc1ccccc1-c1nnc(NC(=O)CCSc2ccccc2)o1	-10
CCc1nc(CNc2cc(C(=O)Nc3ccc4c(c3)CCC4)cc(S(=O)(=O)NC)c2)c(C)[nH]1	-8
CCOC(=O)c1c(C)oc2c1c1c(c3ccccc32)OCN(CCO)C1	-2
CCOc1ccc(C2=C(C)SC(=Nc3ccc(Cl)cc3)NN2)cc1	-24
C=CCNC(=O)c1cc2c(=O)c3ccccc3oc2nc1C	-6
CC(C)SC(=N)N	-5&-16&-16
CC(=O)Nc1c2c(nn1C(C)(C)C)CSC2	-3
CC1CCc2sc(NC(=O)c3cccs3)c(C#N)c2C1 (stereo not drawn)	-1
CC/C=C\C/C=C\C/C=C\C/C=C\CCCCC(=O)O	-23&-23
O=C1Nc2ccc(S(=O)(=O)NCCO)c3cccc1c23	-68
CC1C(=O)O[C@H]2C(O)C34C5CC(C(C)(C)C)C36C(O)C(=O)O[C@H]6O[C@]4(C(=O)O5)[C@@]12O (stereo partly drawn)	0
CCCCc1cn(C2CCN(C(=O)C3CCCCCC3)CC2)nn1	-6
Oc1ccc(N=Cc2ccccc2)cc1-c1nc2ccccc2s1	-24
CCCCC/C=C\C/C=C\CC/C=C\CCCC(=O)OCC	-20&-20
COC1C=CO[C@@]2(C)Oc3c(C)c(O)c4c(O)c(c(C=NN5CCN(C)CC5)c(O)c4c3C2=O)NC(=O)C(C)=CC=CC(C)C(O)C(C)C(O)C(C)C(OC(C)=O)C1C (stereo partly drawn)	-103

Copied from the list.
Entry of `Oc1ccc(N=Cc2ccccc2)cc1-c1nc2ccccc2s1` in HCMV NEC inh: -24
Entry of `CCCCC/C=C\C/C=C\CC/C=C\CCCC(=O)OCC` in HCMV NEC inh: -20&-20
Entry of `O=C1Nc2ccc(S(=O)(=O)NCCO)c3cccc1c23` in HCMV NEC inh: -68

Returning to the listing, starting 3 compounds before the break.
SMILES	HCMV NEC inh
Oc1ccc(N=Cc2ccccc2)cc1-c1nc2ccccc2s1	-24
CCCCC/C=C\C/C=C\CC/C=C\CCCC(=O)OCC	-20&-20
COC1C=CO[C@@]2(C)Oc3c(C)c(O)c4c(O)c(c(C=NN5CCN(C)CC5)c(O)c4c3C2=O)NC(=O)C(C)=CC=CC(C)C(O)C(C)C(O)C(C)C(OC(C)=O)C1C (stereo partly drawn)	-103
COc1ccccc1-c1noc(Cc2ccc3c(c2)OCO3)n1	42&42
CON=C(C(=O)NC1C(=O)N2C(C(=O)OCOC(=O)C(C)(C)C)=C(C=Cc3scnc3C)CS[C@H]12)c1csc(N)n1 (stereo partly drawn)	-28
Cc1cc(-c2ccc(Cl)s2)nc(-n2cccc2)n1	-3
O=C(Nc1ccc(-c2csc(Nc3cccc(C(F)(F)F)c3)n2)cc1)c1cccc(C(F)(F)F)c1	3
C=CCSc1ncc(-c2ccc(Cl)cc2)n1C	-6
CCCCc1cc(C(=O)Cc2ccccn2)c(O)cc1O	-13
O=C1NC(=O)/C(=C/c2ccc3c(c2)OCO3)S1	-45
Clc1ccc(N=C2CSc3nncn3N2)cc1Cl	-10
O=C(Oc1ccccc1)Oc1ccc2ccc(=O)oc2c1	-23
COc1nccnc1-c1cccc(-n2cccn2)c1	-19
Oc1c(C(Nc2nccs2)c2ccc(F)cc2)ccc2cccnc12 (stereo not drawn)	8
CCCCC(C)(C)[C@H](O)/C=C/[C@@H]1[C@@H](C/C=C\CCCC(=O)O)[C@@H](O)C[C@H]1O	-10&-10
Cc1ccc(S(=O)(=O)CC(SC#N)c2ccccc2)cc1 (stereo not drawn)	-7
NS(=O)(=O)c1ccc2nc(NC(=O)C3CCCCC3)sc2c1	0
CC(NC(=O)c1cccs1)C(c1cccs1)N1CCN(C)CC1 (stereo not drawn)	5
OCCN1CCN(Cc2cc(Cl)c3cccnc3c2O)CC1	-26
CCOc1ccccc1C1C(C#N)=C(SC)NC2=C1C(=O)CCC2 (stereo not drawn)	-6
c1cncc(Oc2ncnc3sc4c(c23)CCCC4)c1	10
Cc1n[nH]c(C)c1Sc1ccccc1	-8
CC(C)(C)NC[C@@H](O)COc1cccc2c1CCCC2=O	-14
COC(=O)Cc1c(-c2ccccc2)c2cc(Br)ccc2[nH]c1=O	-6
O=C1C(Cc2ccc(O)cc2)N2C(=O)CCN(C(=O)NCc3ccccc3)[C@H]2CN1Cc1cccc2ccccc12 (stereo partly drawn)	-33
O=C(O)CCCCCCCCCCCNC(=O)NC1CCCCC1	-13&-13
c1ccc(-n2nnnc2-c2nc3ccccc3s2)cc1	-3
CC(C=CC1=C(C)CCCC1(C)C)=CC=CC(C)=CC(=O)O	-8&-8
OCCC/C=C/c1ccccc1	-15&-15
Cc1nnc(SCC(=O)NCc2ccc3c(c2)OCO3)s1	6
COc1ccc2c(c1)SC1=NCCS(=O)(=O)N12	-12
COc1cc(OC)cc(C(=O)N=c2sc3cc(C)cc(C)c3n2C)c1	-16
Cc1nc2ccccc2nc1CN1CC(=O)N(C2CCCCC2)CC(OCc2cccnc2)C1 (stereo not drawn)	-16
Ic1ccc2nc(-c3ccccc3)cn2c1	-5
Cc1noc(C)c1CN1CCN(c2ccccc2)CC1	2
O=C(Nc1nnc(-c2ccc(Cl)cc2)o1)c1ccco1	0
CNCC(O)c1ccc(OC(=O)C(C)(C)C)c(OC(=O)C(C)(C)C)c1 (stereo not drawn)	0
COc1ccc(-c2onc(C)c2-c2cscn2)c(O)c1	-22
Cc1nc(N)sc1-c1ccnc(Nc2cccc([N+](=O)[O-])c2)n1	-26
CCN(CC)S(=O)(=O)c1ccc(C(=O)NCc2ccc3[nH]c(C)cc3c2)cc1	-16
Cn1c(CCCNC(=O)Cc2ccccc2)nc2ccccc21	-17
COc1ccc2cc1Oc1ccc(cc1)CC1c3cc(c(OC)cc3CCN1C)Oc1c(OC)c(OC)cc3c1C(C2)N(C)CC3 (stereo not drawn)	18
CC(=O)Nc1ccc(OCC(O)Cn2cnc3ccccc32)cc1 (stereo not drawn)	-11
COc1ccc(NC(=O)COc2cccc(Oc3ccccc3)c2)cc1	10
COc1ccc(OC)c(-c2ccc3nc(C)ccc3c2)c1	-10
CC(C)(C)n1ncc(C(=O)O)c1C(F)(F)F	3
C=C[C@@]1(C)CC(=O)[C@]2(O)[C@@]3(C)[C@H](O)CCC(C)(C)[C@@H]3[C@H](O)[C@H](OC(C)=O)[C@@]2(C)O1	-11
c1ccc(Oc2nc(NC3CCCCC3)c3[nH]cnc3n2)cc1	0
O=C(O)Cc1sc(Nc2ccccc2)nc1-c1cccs1	-39
CC(C)CN1CC(OCc2cccc(F)c2)CN(C(=O)Cn2cnc3ccccc3c2=O)CC1=O (stereo not drawn)	-13
O=C(C=Cc1ccccc1)N1CCN(c2cccc(Cl)n2)CC1	-12

The final 3 compounds of the section before open the next one.
SMILES	HCMV NEC inh
O=C(O)Cc1sc(Nc2ccccc2)nc1-c1cccs1	-39
CC(C)CN1CC(OCc2cccc(F)c2)CN(C(=O)Cn2cnc3ccccc3c2=O)CC1=O (stereo not drawn)	-13
O=C(C=Cc1ccccc1)N1CCN(c2cccc(Cl)n2)CC1	-12
O=C(NCCn1ccc2ccccc21)c1ccccc1	-1
CCCc1c(C)c2ccc(OCC(=O)O)cc2oc1=O	-14
CC(Cc1ccc(O)c(O)c1)C(C)Cc1ccc(O)c(O)c1 (stereo not drawn)	-23&-23
CN=Cc1c(Cl)nc2sccn12	2
CCc1ccc(OCC(=O)NCCc2ccccc2)cc1	0
O=S1(=O)CCC(NC(=S)SCCOc2ccccc2)C1 (stereo not drawn)	-15
O=C(CCn1c(=O)oc2ccccc21)NC1=NCCS1	1
CCCCC[C@H](O)/C=C/[C@@H]1[C@@H](CCCCCCC(=O)O)[C@H](O)C[C@H]1O	-20&-20
CCN1CCN(S(=O)(=O)c2c(C)c(C)cc(C)c2C)CC1	6
CC#CCC(C)C(=O)/C=C/[C@@H]1[C@H]2C/C(=C/CCCC(=O)O)C[C@H]2C[C@H]1O (stereo partly drawn)	-18&-18
COCC(=O)NCCc1nc2ccccc2[nH]1	-2
CC1(C)O[C@@H]2C[C@H]3[C@@H]4CCC5=CC(=O)CC[C@]5(C)[C@@]4(F)[C@@H](O)C[C@]3(C)[C@]2(C(=O)CCl)O1	-11
O=C(O)Cc1ccc(O)c([N+](=O)[O-])c1	-79

Another view of some results above:
compound: CCc1ccc(OCC(=O)NCCc2ccccc2)cc1
  HCMV NEC inh = 0

compound: O=S1(=O)CCC(NC(=S)SCCOc2ccccc2)C1 (stereo not drawn)
  HCMV NEC inh = -15

compound: O=C(CCn1c(=O)oc2ccccc21)NC1=NCCS1
  HCMV NEC inh = 1

compound: CCCCC[C@H](O)/C=C/[C@@H]1[C@@H](CCCCCCC(=O)O)[C@H](O)C[C@H]1O
  HCMV NEC inh = -20&-20

High-throughput results from PubChem.
